# KAT2A inh: qHTS Assay for Inhibitors of GCN5L2. GCN5L2 HAT assay, ThioGlo1 CoA-SH fluorescence. Potency, µM (top dose mostly 58.9 µM), without a hit: at the highest dose activity change, negative = inhibition, hits mostly inhibitors. Histone acetyltransferase KAT2A (Homo sapiens), Q92830. 390,000 compounds, 0.21% hits; active = well fitted inhibition curve with a large enough effect; inconclusive = small, poorly fitted or top-dose-only effect, or another doubt; inactive = no such curve, though single readings can be large or run the other way
# Target sequence (Q92830 whole entry, looked up): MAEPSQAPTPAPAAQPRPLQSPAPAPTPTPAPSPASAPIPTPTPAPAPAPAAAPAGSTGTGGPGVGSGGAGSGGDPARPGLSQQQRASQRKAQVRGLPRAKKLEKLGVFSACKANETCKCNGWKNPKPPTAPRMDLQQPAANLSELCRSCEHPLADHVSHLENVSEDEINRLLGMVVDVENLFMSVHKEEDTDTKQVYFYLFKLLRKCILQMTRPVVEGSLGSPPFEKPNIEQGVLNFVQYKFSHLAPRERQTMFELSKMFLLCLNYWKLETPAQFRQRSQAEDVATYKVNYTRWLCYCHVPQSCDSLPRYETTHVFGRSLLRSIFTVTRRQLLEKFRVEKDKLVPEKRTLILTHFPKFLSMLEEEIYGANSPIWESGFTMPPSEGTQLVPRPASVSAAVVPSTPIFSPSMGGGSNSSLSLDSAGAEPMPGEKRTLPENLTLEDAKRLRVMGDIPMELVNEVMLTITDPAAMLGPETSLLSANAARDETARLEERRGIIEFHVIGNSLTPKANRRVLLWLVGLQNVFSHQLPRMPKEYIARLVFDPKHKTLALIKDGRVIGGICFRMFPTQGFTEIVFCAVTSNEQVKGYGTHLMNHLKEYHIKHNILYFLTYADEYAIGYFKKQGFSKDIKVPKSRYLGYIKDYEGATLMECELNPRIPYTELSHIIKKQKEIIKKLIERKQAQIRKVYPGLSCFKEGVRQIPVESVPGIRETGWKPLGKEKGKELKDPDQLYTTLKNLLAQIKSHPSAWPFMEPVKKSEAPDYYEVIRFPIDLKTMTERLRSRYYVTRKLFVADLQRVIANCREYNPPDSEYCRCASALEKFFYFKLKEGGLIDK
#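 Enzyme at 20nM final was mixed with library compounds for 15 min at room temperature. Peptide H3(1-25) at 75uM, acetyl-CoA at 70uM and ThioGlo1 at 50uM were then added. Plates were read immediately and after 20 min (Ex340nm/Em540nm).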
# * = called active by the depositor; ? = inconclusive; & = joins results of further samples; [ ] = dose if it differs, or a comment. % is set by controls: 0 for no effect and ±100 for the full control effect; potency is the fitted concentration of half-maximal effect. Not all compounds are listed; most or all hits stand in other tables.
KAT2A inh	smiles
-9%	CCCN1CCN(CCCNC(=O)C2CCN(c3nnc(-n4cccc4)s3)CC2)CC1
-9%	COc1ccc2[nH]c(C(=O)Nc3cccc(C)n3)cc2c1
-12%	Cc1ccc(OCC(=O)NCC(c2ccc(Cl)cc2)N2CCOCC2)cc1C (stereo unspecified)
-3%	COc1ccc(C(=O)N(Cc2cc(OC)c(OC)c(OC)c2)CC2CCCO2)cc1 (stereo unspecified)
-12%	Cc1ccc(N(CC(=O)NC2CCCC2)C(=O)CCCC(=O)Nc2ccccn2)cc1C
0%	CCCCCCn1c(N2CCC(C(N)=O)CC2)nc2c1c(=O)n(C)c(=O)n2C
-2%	CN(Cc1ccccc1Cl)C(=O)CCNC(=O)c1ccco1
3%	Cc1ccc(C)c(N2CCN(C(=O)CN(C)S(=O)(=O)c3cnc[nH]3)CC2)c1
1%	Cn1cccc1C(=O)NCc1ccc(Cl)cc1
-3%	Cc1cc(NC(=O)c2cccc3ccccc23)cc(C)c1OCC(=O)N1CCOCC1
-4%	Cc1nnc(NC(=O)CSc2nnc(CC(=O)Nc3ccccc3C)n2C)s1
-10%	FC(F)(F)c1cc(N2CCN(Cc3ccccc3)CC2)c2ccccc2n1
-1%	CCOC(=O)C1=C(C)NC(C)=C(C(=O)OCC)C1C(=O)OCC(=O)NC1(C#N)CCCCC1
-6%	COc1ccccc1OCC#CCNC1CCCCC1C (stereo unspecified)
1%	O=C(CSc1ccc(-c2ccc(Cl)cc2)nn1)Nc1ccc2c(c1)OCCO2
-11%	c1csc(C2=NC(c3ccncc3)=Nc3ccccc3N2)c1
1%	COc1cc(SC)ccc1C(=O)Nc1c(Cl)cncc1Cl
-14%	CCN1C(=O)[C@H]2[C@@H](c3ccc(-c4ccc(F)cc4)cc3)N[C@@](Cc3ccccc3)(C(=O)OC)[C@H]2C1=O
-3%	CC1Cc2nc(SCC(=O)N3CCOCC3)n(C)c(=O)c2S1 (stereo unspecified)
-2%	CN(C)c1ccc(CNC(=O)C(Cc2ccccc2)NS(=O)(=O)c2ccc3c(c2)oc(=O)n3C)cc1 (stereo unspecified)
-10%	CC(OC(=O)CCC(=O)c1ccc(F)cc1)C(=O)NC1CCCCC1C (stereo unspecified)
-4%	CCCCOCCCNC(=O)N[C@H](C(=O)OC)C(C)CC (stereo partly specified)
-10%	COC(=O)c1ccc(NC(=O)CSc2nnc(-c3ccccc3)n2C)cc1
3%	CC(=O)N1CCN(C(=O)COC(=O)COc2c(C)cc(C)cc2C)CC1
-8%	COc1ccc(CC(=O)Nc2c3c(nn2C(C)(C)C)CS(=O)(=O)C3)cc1OC
-7%	COc1ccc(-c2csc(-c3cccnc3)n2)cc1C
-2%	O=C(CSc1nc(N2CCCCC2)nc(N2CCCCC2)n1)Nc1nccs1
20%	Cc1ccccc1C(CC(=O)c1cccs1)C(C#N)C#N (stereo unspecified)
-13%	CCN1C(=O)C(CC(=O)Nc2ccc(Br)cc2)N(CCCc2ccccc2)C1=S (stereo unspecified)
-4%	CC(C)(C)c1nnc(NC(=O)c2ccc(Cl)nc2)s1
-3%	CCc1ccc(NC(=S)Nc2cccc(OC)c2)cc1
-4%	COc1cccc(NC(=S)N(CCCN2CCOCC2)C(C)c2cc3cccc(OC)c3o2)c1 (stereo unspecified)
-6%	Cc1nn(CC(=O)NCc2ccccc2)c(C)c1[N+](=O)[O-]
-2%	OCCOCCOc1cccc2[nH]ccc12
-5%	O=C(CNS(=O)(=O)c1cccs1)N1CCCCC1
-4%	Cc1c(Cl)cccc1NC(=O)CCS(=O)(=O)c1cccc2nonc12
?	O=C(NCc1ccc(Cl)cc1)C(=O)NCC1OCCN1S(=O)(=O)c1cc(F)ccc1F (stereo unspecified)
-1%&0%	CCCCCCCC(=O)O
-5%	CCOC(=O)CC(NC(=O)c1cccc2c1C(=O)N(Cc1cccnc1)C2)c1ccc(OC(C)C)cc1 (stereo unspecified)
-10%	COc1ccc(S(=O)(=O)N2CCOCC2)cc1NC(=O)COC(=O)C1=COCCO1
-2%	CSc1ncc(C(=O)NCc2ccc(C)cc2)c(-c2ccccc2)n1
11%	COc1ccc(CN2C(=NC(=O)C3CC3)SC3CS(=O)(=O)CC32)cc1OC (stereo unspecified)
-5%	O=C(COC(=O)c1ccc(Br)cc1)NC(=O)NCc1ccccc1
1%	Cc1ccccc1Nc1nc(N)nc(CSc2nncn2C)n1
-7%	COc1c2occc2c(OC)c2c(=O)cc(C(F)(F)C(F)(F)F)oc12
-10%	COc1cc(NC(=O)CSCC(=O)Nc2cccc(C(F)(F)F)c2)c(Cl)cc1Cl
13%	COc1ccc(C2CC(=O)C=C(NNS(=O)(=O)c3ccc(C)cc3)C2)cc1 (stereo unspecified)
4%	O=c1nc(N2CCOCC2)ccn1Cc1ccc(Br)cc1
-9%	Cc1cccc(Cn2c(C)c(C)c3cc(C(=O)NCCN4CCOCC4)ccc32)c1
1%	Cc1ccc(CNC(=O)Cc2ccc(-n3c(=O)[nH]c4ccsc4c3=O)cc2)cc1

# Among those listed so far, 4 have an NH in an aromatic ring.
KAT2A inh	smiles
-9%	COc1ccc2[nH]c(C(=O)Nc3cccc(C)n3)cc2c1
3%	Cc1ccc(C)c(N2CCN(C(=O)CN(C)S(=O)(=O)c3cnc[nH]3)CC2)c1
-2%	OCCOCCOc1cccc2[nH]ccc12
1%	Cc1ccc(CNC(=O)Cc2ccc(-n3c(=O)[nH]c4ccsc4c3=O)cc2)cc1

# Further records follow.
KAT2A inh	smiles
-3%	Cc1ccnc(NS(=O)(=O)c2ccc(NC(=O)COc3ccccc3)cc2)n1
?	CC(=O)N1CCc2cc(S(=O)(=O)CCC(=O)NCCc3ccc(C)cc3)ccc21
1%	CCCC1(C(=O)OC)NC(c2ccco2)C2C(=O)N(c3ccc(C)cc3)C(=O)C21 (stereo unspecified)
-8%	COc1ccc2c(-c3ccccc3)cc(SCC(=O)N(C)C3CCS(=O)(=O)C3)nc2c1 (stereo unspecified)
-5%	O=C(COc1ccccc1)N1CCN(C(=O)c2ccc([N+](=O)[O-])cc2)CC1
-3%	O=C(C1CC(=O)N(c2ccccc2)C1)N1CCN(c2ccccc2F)CC1 (stereo unspecified)
31%[activator]	C[C@H]1[C@H](C)CC[C@]2(C(=O)O)CC[C@]3(C)C(=CC[C@@H]4[C@@]5(C)CC[C@H](O)C(C)(C)[C@@H]5CC[C@]43C)[C@H]12
-6%	O=S(=O)(c1ccc2nc(COc3ccccc3)[nH]c2c1)N1CCOCC1
2%	CCCCNC(=O)Cc1c(OC)ccc2cc(Br)ccc12
-2%	CCn1c(=O)c(=O)[nH]c2cc(C(=O)Nc3ccc(S(=O)(=O)N4CCCC4)cc3)ccc21

# 6 compounds picked at random from those above, as already listed:
KAT2A inh	smiles
-2%	CN(Cc1ccccc1Cl)C(=O)CCNC(=O)c1ccco1
13%	COc1ccc(C2CC(=O)C=C(NNS(=O)(=O)c3ccc(C)cc3)C2)cc1 (stereo unspecified)
11%	COc1ccc(CN2C(=NC(=O)C3CC3)SC3CS(=O)(=O)CC32)cc1OC (stereo unspecified)
-3%	CC1Cc2nc(SCC(=O)N3CCOCC3)n(C)c(=O)c2S1 (stereo unspecified)
-9%	CCCN1CCN(CCCNC(=O)C2CCN(c3nnc(-n4cccc4)s3)CC2)CC1
-1%&0%	CCCCCCCC(=O)O

# (more compounds)
KAT2A inh	smiles
-16%	OCC1CCCN(C2CCN(Cc3nc(Cc4cccc(C(F)(F)F)c4)no3)CC2)C1 (stereo unspecified)
-6%	COCCN(C(=O)c1ccc(N2CCCC2=O)cc1)c1c(N)n(CC(C)C)c(=O)[nH]c1=O
2%	CN1CCN(C(=O)/C=C/c2ccccc2)CC1
3%	Cc1cccc(Cc2nnc(CCC(=O)N(C)C3CCOC3)o2)c1 (stereo unspecified)
-4%	COc1cccc(CN(C)C(=O)C23CC4CC(CC(C4)C2)C3)c1
-4%	CC(=O)Nc1ccc(NC(=O)CSc2nnc(-c3ccc4c(c3)OCO4)o2)cc1
-3%	CCOC(=O)C1CCN(C(=O)CSCCSCC(=O)N2CCC(C(=O)OCC)CC2)CC1
-8%	COc1cc2nc(N3CCN(C(=O)c4ccco4)CC3)nc(N)c2cc1OC
-6%	COc1ccc(OC)c(-n2c(=S)[nH]c3cc(C(=O)N4CCN(c5ccccc5)CC4)ccc3c2=O)c1
0%	CCOc1ccc2nc(C)cc(Nc3ccccc3OCC)c2c1
-1%	CCCCCCCOC(=O)c1ccc(OC(=O)c2cccnc2)cc1
1%	COc1cnc(SCC(=O)O)[nH]c1=O
-18%	O=C(Cc1ccccc1)NC(=S)Nc1cccc(C(F)(F)F)c1
-1%	O=C1C=C(c2cc3ccccc3o2)C[C@@H](c2ccc(F)cc2)C1
3%	CC1(C)C[C@@H](O)[C@]2(C)CC[C@]3(C)C(=CCC4[C@@]5(C)CC[C@H](O)[C@](C)(CO)C5CC[C@]43C)[C@@H]2C1 (stereo partly specified)
-2%	O=C(Nc1ccc(F)cc1)c1nn(-c2ccccc2)c(=O)cc1Cl
-7%	NC(=O)C1CCN(S(=O)(=O)Cc2ccccc2Cl)CC1
-1%	Cc1nc(N2CCC(C)CC2)c2c(C)c(C(=O)Nc3ccc(C)c(F)c3)sc2n1
-9%	Cn1c(NC(=O)Cc2ccc(F)cc2)cc(=O)n(C)c1=O
-12%	CCCCn1c(SCC(=O)N2CCOCC2)nnc1-c1cccs1
-15%	COCCCn1c(=O)/c(=C\c2ccccc2OC(F)F)s/c1=C(/C#N)C(=O)N1CCOCC1
-1%	CCN(CC)C(=O)CNc1ccc(C(F)(F)F)cc1[N+](=O)[O-]
-5%	Cc1ccc(NC(=O)OCC(F)(F)C(F)F)cc1NC(=O)OCC(F)(F)C(F)F
-3%	Cc1ccc(OCC(=O)N/N=C/c2cccnc2)cc1
-3%	Nc1ccc(C(=O)OCc2nc3c(ccc4ccccc43)[nH]2)cc1
-7%	COc1ccc(-n2nc(C(=O)Nc3ccc(C(C)=O)cc3)nc2-c2ccccc2)cc1
0%	Cc1nn(CCC(=O)NCCc2ccccc2Cl)c(=O)c2nn(-c3ccccc3)c(C)c12
-6%	Cc1cccc(N/C(N)=N/c2nc(C(F)(F)F)cc(=O)[nH]2)c1C
-21%	CC1CN=C(c2cccn2Cc2ccc(F)cc2Cl)O1 (stereo unspecified)
0%	Cc1nnc2c3ccccc3c(Cl)nn12
-5%	C=CCn1c(-c2ccc(OC)cc2)nc2nc3ccccc3nc21
-7%	CCN(CC)S(=O)(=O)c1ccc2nnn(OCC(=O)Nc3cccc(C#N)c3)c2c1
-3%	CCOc1cc(NC(=S)Nc2ccccc2)c(OCC)cc1NC(=O)c1ccc(OC)cc1
-1%	CCc1ccc(NC(=O)Cn2c(=O)oc3cc(S(=O)(=O)N4CCOCC4)ccc32)cc1
-1%	CCOC(=O)c1ccc(NC(=O)CCC(CC)C(=O)O)cc1 (stereo unspecified)
-15%	Cc1nc2ccn(Cc3cccnc3)c(=O)c2cc1C(=O)N1CCN(c2ccc(F)cc2)CC1
-3%	C=CCn1c(SCc2nc3ccccc3c(=O)[nH]2)nnc1-c1cc2cc(Cl)ccc2o1
9%	COc1ccccc1C(=O)C1CCCN(C(=O)c2cc(CC(C)C)nc(C)n2)C1 (stereo unspecified)
-7%&-8%&10%	Cc1ccc(-c2cc(C(F)(F)F)nn2-c2ccc(S(N)(=O)=O)cc2)cc1
?	Cn1c(COc2ccccc2)nc2ccccc21
0%	COC(=O)c1ccccc1NC(=O)CN1CCC(NC(=O)c2ccccc2C)CC1
-17%	COCCNC(=O)C(=O)NCC(c1cccnc1)N1CCN(c2ccccc2OC)CC1 (stereo unspecified)
2%	CCOC(=O)CN(C(=O)COc1nc(C)cc(C)c1C#N)c1cccc(Cl)c1
-18%	CC1CCCC(C)N1c1nnc(NC(=O)c2cc(-c3ccc(Br)cc3)on2)s1 (stereo unspecified)
-10%	COc1ccc([C@H]2CC(=O)C=C(c3ccccc3OC)C2)cc1OC
-6%	O=C(CN1C(=O)NC(Cc2c[nH]c3ccccc23)C1=O)Nc1ccccc1Br (stereo unspecified)
2%	CC(C)C[C@H](NC(=O)c1nc[nH]c1C(=O)N1CCC(C)CC1)C(=O)OC(C)(C)C
-9%	O=S(=O)(c1ccc(F)c(Cl)c1)N1CCN(C/C=C/c2ccccc2)CC1
-2%	Cc1ccccc1Cn1cc(/C=N/n2cnnc2)c2ccccc21
-5%	COc1cc(CNCCN(C)C)ccc1OCc1c(F)cccc1Cl

# (next part)
KAT2A inh	smiles
-7%	CCC1=C2CC[C@H]3C(=O)N(c4ccccc4)C(=O)[C@H]3[C@H]2[C@@]2(C)C(=NCC(=O)OC)OC(=O)N2C1=O
3%	CCOc1c2ccc(C(=O)NCc3ccc(OC(F)(F)F)cc3)cc2nn1CC
-2%	Cc1cccc(NC(=O)C2CCCN(C(=O)Nc3ccc(F)cc3)C2)c1 (stereo unspecified)
-7%	CCC1CCCCN1Cc1ccc(OC)c(C)c1 (stereo unspecified)

# Bioassay records (PubChem)
